# From PubChem
# RE007 growth inh = qHTS Assay for Inhibitors of the HIV-1 protein Vpr; Potency, µM (top dose mostly 92.2 µM), inactives show at the highest dose activity change, negative = less growth; AID 651644, 2012; actives 0.21% (n = 360,000); S. pombe RE007 Vpr strain, BacTiter-Glo ATP luminescence, 24 h; control for the full effect not named in the record; active = well fitted falling curve with a large enough effect; inconclusive = small, poorly fitted or top-dose-only effect; inactive = no such curve, though single readings can be large or run the other way;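 note: % is set by controls: 0 for no effect and ±100 for the full control effect; nearly all actives have a fitted effect of over 50% in size; the assay follows cell death caused by Vpr and the record does not say whether a fall means rescue or toxicity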
#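 Fission yeast strain RE007, carrying one chromosomally integrated HIV-1 vpr copy, was seeded at OD 0.01 in PMG+AL medium with 23 nL pinned compound. After 24 h at 30 °C and 99% humidity, viability was read by BacTiter-Glo luminescence.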
# SARS PLpro yeast = qHTS of Yeast-based Assay for SARS-CoV PLP; S. cerevisiae expressing SARS-CoV PLpro, growth rescue; control for the full effect not named in the record; actives 0.19% (n = 330,000); Potency, µM (doses to about 32.9 µM), for inactives: top-dose activity, positive = growth rescue; AID 485353, 2010; note: 0% is about no effect; nearly all actives have a fitted effect of over 55% in size; growth read by luminescence after 48 h
# Cruzain noTriton = qHTS Assay for Promiscuous and Specific Inhibitors of Cruzain (without detergent) | Potency, µM, for the others: max response, negative = inhibition, usual class: inhibitors | actives 2.3% (n = 200,000) | AID 1476, 2009 | purified cruzain, Z-FR-AMC fluorescence, no detergent | Cruzipain (Trypanosoma cruzi), P25779; active = well fitted curve in the direction sought with a large enough effect; inconclusive = small, poorly fitted or top-dose-only effect, or another doubt; inactive = no such curve, though single readings can be large; an effect the other way counts as inactive or inconclusive;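 note: plate controls were enzyme without inhibitor for no effect and buffer without enzyme for full effect; nearly all actives have a fitted effect of over 40% in size; top concentration of the series not given in the record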
# Target sequence (P25779 123-467 limits assumed): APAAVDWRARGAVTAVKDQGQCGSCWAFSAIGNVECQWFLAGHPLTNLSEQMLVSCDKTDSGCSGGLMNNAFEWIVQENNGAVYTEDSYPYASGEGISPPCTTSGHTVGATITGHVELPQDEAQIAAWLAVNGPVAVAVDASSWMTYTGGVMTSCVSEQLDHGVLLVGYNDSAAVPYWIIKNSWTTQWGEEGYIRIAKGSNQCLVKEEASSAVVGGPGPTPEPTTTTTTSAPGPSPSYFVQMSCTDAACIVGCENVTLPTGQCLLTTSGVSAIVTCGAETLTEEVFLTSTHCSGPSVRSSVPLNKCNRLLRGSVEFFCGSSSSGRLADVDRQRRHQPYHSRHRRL
#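 Purified cruzain at 1.5 nM, pre-incubated 15 min with compound at room temperature in 100 mM sodium acetate pH 5.5, 5 mM DTT, 0.00005% Triton X-100. Reaction started with 2 uM Z-FR-AMC; AMC fluorescence increase over 60 s gives rate.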
# NS1 inh = qHTS Assay for Inhibitors of Influenza NS1 Protein Function. S. cerevisiae slowed by influenza A NS1, growth recovery by OD600. Potency, µM (titrated, usually from 46.1 µM), for inactives: at the highest dose activity, positive = more growth. actives 0.4% (n = 270,000); note: actives are rising curves; nearly all actives have a fitted effect of over 50% in size
#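 A cell-based growth assay was used: compounds that relieve NS1-induced slow growth of budding yeast raise OD600. Assay medium was yeast nitrogen base with ammonium sulphate and -URA supplement, pH 6.0, with 2% galactose.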
# Cruzain inh Det = qHTS Assay for Promiscuous and Specific Inhibitors of Cruzain (with detergent) | Cruzipain (Trypanosoma cruzi), P25779 | actives 0.43% (n = 200,000) | Potency, µM, for inactives: max response, negative = inhibition, usual class: inhibitors | AID 1478, 2009 | purified cruzain, Z-FR-AMC fluorescence, 0.01% Triton; active = well fitted curve in the direction sought with a large enough effect; inconclusive = small, poorly fitted or top-dose-only effect, or another doubt; inactive = no such curve, though single readings can be large; an effect the other way counts as inactive or inconclusive;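 note: plate controls were neutral wells for no effect and buffer without enzyme for full effect; nearly all actives have a fitted effect of over 40% in size; top concentration of the series not given in the record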
#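 Purified cruzain (1.5 nM final) was preincubated with compounds for 15 min at room temperature in 100 mM sodium acetate pH 5.5, 5 mM DTT, 0.01% Triton X-100. Reaction started with 2 uM Z-FR-AMC; AMC fluorescence change over 60 s gave activity.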
# LASV entry inh = qHTS for Inhibitors of binding or entry into cells for Lassa Virus. Potency, µM (titrated, usually from 37.9 µM), for the others: at the top dose activity change, negative = inhibition, actives largely listed as inhibitors. Lassa virus pseudotype entry inhibition, cell reporter; control for the full effect not named in the record. AID 540256, 2011. actives 1.2% (n = 300,000); active means well fitted inhibition curve with a large enough effect; inconclusive means small, poorly fitted or top-dose-only effect, or effect the other way; inactive means flat fitted curve, though single readings scatter; tested in HEK293 cells; note: % is set by controls: 0 for no effect and ±100 for the full control effect; nearly all actives have a fitted effect of over 50% in size; luciferase read-out
# 2A StopGo = High Throughput Screening for Foot and Mouth Disease Virus Antivirals; human cells with a luciferase reporter of 2A StopGo recoding; control for the full effect not named in the record; Potency, µM (titrated, usually from 57.9 µM), inactives show at the top dose signal change, negative = less light; actives 1.2% (n = 410,000); AID 1159524, 2015; active = well fitted falling curve with a large enough effect; inconclusive = small, poorly fitted or top-dose-only effect; inactive = no such curve, though single readings can be large or run the other way; tested in HEK293T cells; note: % is set by controls: 0 for no effect and ±100 for the full control effect; nearly all actives have a fitted effect of over 45% in size; luciferase light after 4 h
# MARV entry inh = qHTS for inhibitors of binding or entry into cells for Marburg Virus | Marburg virus pseudotyped entry inhibition, cell reporter; control for the full effect not named in the record; about a third of the inactives were read at about 46 µM | Potency, µM (titrated, usually from 37.8 µM), without a hit: at the top dose activity change, negative = inhibition, actives largely listed as inhibitors | actives 1.8% (n = 300,000) | AID 540276, 2011; active = well fitted inhibition curve with a large enough effect; inconclusive = small, poorly fitted or top-dose-only effect, or effect the other way; inactive = flat fitted curve, though single readings scatter; tested in HEK293 cells; about a fifth of its hits are not listed in these tables; note: % is set by controls: 0 for no effect and ±100 for the full control effect; luciferase read-out
# * marks the source's active call; other numbers are inactive results; ? = inconclusive; . = no result given; & = joins results of further samples; [ ] = dose if it differs, or a comment. Unless noted, calls come from the whole dose curve; as a rule, active means well fitted rising curve with a large enough effect; inconclusive means small, poorly fitted or top-dose-only effect; inactive means no such curve, though single readings can be large or run the other way. Potency is the fitted concentration of half-maximal effect.
SMILES,RE007 growth inh,SARS PLpro yeast,Cruzain noTriton,NS1 inh,Cruzain inh Det,LASV entry inh,2A StopGo,MARV entry inh
COC(=O)Cn1c(=NC(=O)CSCC(=O)Nc2cc(C)on2)sc2ccccc21,-12.5%,0.3%,.,-53.8%&6.0%,.,.,-12.3%,.
O=C(CNC(=S)N(CCCN1CCOCC1)Cc1cccs1)N1CCCCCC1,3.3%,2.5%,.,.,.,14.9%,9.6%,12.4%[46.1 µM]
CCN(CC)S(=O)(=O)c1ccc(C)c(NC(=O)CSc2nc3ccc(C)cc3[nH]2)c1,10.0%,13.4%,-16.9%,-7.9%,-9.4%,?,?,?
CCc1ccc(-n2c(=O)c3c(C)c(C(=O)N(C)C)sc3n(CC(=O)Nc3cc(Cl)ccc3C)c2=O)cc1,.,.,5.0%,.,4.6%,7.7%[46.1 µM],-19.9%,.
NC(=O)c1cc2ccccc2o/c1=N\NC(=O)c1ccccc1O,2.7%,-1.9%,.,-3.1%,.,.,-6.2%,.
COc1cccc(NC(=O)Nc2ccc3c(c2)nnn3C)c1,-7.4%,2.5%,-4.4%,6.4%,-1.3%,0.8%,35.8%[activator],2.5%[46.1 µM]
CCn1cc(C(=O)NCCc2ccc(C)cc2)c(=O)c2cc(S(=O)(=O)N3CCCCC3)ccc21,.,.,13.8%,.,-1.0%,?,-27.2%,-5.3%[46.1 µM]
Cn1c(=N)n(CC(O)c2ccco2)c2ccccc21 (stereo not drawn),0.0%,6.9%,3.4%,4.0%,1.2%,-17.9%,-9.4%,10.4%
O=C(Nc1ccccc1)c1cc2ccccc2s1,-8.6%,.,.,.,.,?,9.3%,?
CNC(=O)c1c(NC(=O)C2=COCCO2)sc2c1CCC(C)C2 (stereo not drawn),3.7%,0.8%,.,-12.6%,.,?,22.7%,?
Cc1ccc(Cl)cc1N1CCN(C(=O)c2ccc(CS(=O)c3ccccc3)o2)CC1 (stereo not drawn),.,.,?,.,-7.7%,?,0.0%,.
COCCCN1C(=O)C(O)=C(C(C)=O)C1c1ccccn1 (stereo not drawn),32.7%,4.2%,-2.4%,-7.8%,1.1%,12.4%,3.0%,9.6%[46.1 µM]
CC1CCCCC1NC1CCN(C)CC1 (stereo not drawn),-6.6%,-1.6%,.,20.9%,.,.,-7.2%,.
O=C(Nc1ccon1)c1ccc(N2CCCCC2)c([N+](=O)[O-])c1,8.1%,0.9%,.,.,.,15.7%,-3.4%,-22.1%
CCOc1cccc(CNC(=O)c2ccc(N3CCCC3)c(NC(=O)Nc3ccccc3CC)c2)c1,.,.,-7.7%,.,0.5%,-5.8%[46.1 µM],-4.9%,.
CC(=O)N1CCc2cc(S(=O)(=O)CCC(=O)N3CCc4ccccc4C3)ccc21,6.5%,4.8%,-7.4%,4.2%,1.6%,1.1%,11.6%,25.0%
Cc1ccc(S(=O)(=O)c2c(Nc3cccc(Cl)c3)sc(C(=O)c3ccc4c(c3)OCO4)c2N)cc1,.,.,?,.,-4.0%,?,9.1%,.
O=C(Nc1nnc(Cc2ccc(Cl)cc2)s1)C1CCCO1 (stereo not drawn),-13.7%,-0.4%,.,-4.8%,.,16.6%[46.1 µM],-11.1%,?
Cc1ccc(C)c(N2CCN(C(=O)c3cc(S(=O)(=O)N4CCCC4)c[nH]3)CC2)c1,.,.,?,.,-3.8%,14.4%[46.1 µM],-6.5%,.
c1ccc(CCSc2ncnc3nc[nH]c23)cc1,0.7%,-3.5%,2.8%,-10.2%,-2.5%,-25.6%,23.8%,?
COc1cc(O)c(C(CCN2CCCC2)c2ccc3c(c2)OCO3)c(OC)c1 (stereo not drawn),-12.9%,-0.6%,.,-1.2%,.,.,-17.0%,.
O=C(COC(=O)c1cc(F)cc(F)c1)NCCCc1ccccc1,-18.7%,-1.8%,.,-14.7%,.,.,-15.8%,.
N/C(=N\OC(=O)c1ccco1)c1ccccc1,-12.8%,-20.3%,12.5%,-7.0%,-1.1%,-6.5%,.,13.6%
Cc1ccc(/C=C/C(=O)OC(C)C(=O)NC2CCCCC2C)o1 (stereo not drawn),0.5%,19.0%,.,.,.,0.8%,-17.6%,?
CCOc1ccc(CCNC(=O)Cn2nc(CC)n3c(cc4sc(CC)cc43)c2=O)cc1OCC,.,.,-7.4%,.,-2.0%,.,-21.1%,15.5%[46.1 µM]
CN(C)S(=O)(=O)c1cccc(NC(=O)c2ccc3nccnc3c2)c1,1.8%,-0.3%,.,-1.6%,.,-6.3%,-29.9%,?
CCCc1cc(=O)oc2c(C)c(OCC(=O)NCc3ccccn3)ccc12,-2.7%,3.3%,.,-9.6%,.,11.7%[46.1 µM],0.0%,-10.9%[46.1 µM]
CC(C)C(=O)Nc1sc2c(c1-c1nc3ccccc3[nH]1)CCCC2,-15.4%,-0.4%,20µM*,2.0%,-1.0%,5.8%,0.9%,-21.8%
Cc1ccc(NC(=O)CSc2ccc(C(N)=O)cc2[N+](=O)[O-])cc1C,-16.8%,0.6%,.,11.1%,.,1.1%,0.0%,2.1%[14.2 µM]
Cc1c(C)n2c(SCC(=O)N3CCCCCC3)nnc2[nH]c1=O,-0.9%,-1.9%,.,.,.,5.5%,-7.5%,-8.5%[46.1 µM]
COc1ccc(-n2nc(C(=O)NCCc3ccc(OC)c(OC)c3)c3c4ccccc4n(C)c3c2=O)cc1Cl,.,.,-13.5%,.,-2.0%,?,?,?
CSc1nc(-c2ccc(C)cc2)nc(C(Cl)Cl)n1,-4.1%,-5.3%,8.0%,13.1%,4.6%,?,-3.7%,?
CCOCCCNCC(=O)NCC1CCCCC1,-8.3%,2.2%,.,-6.1%,.,.,9.1%,.
Cc1cc(C)nc(N2CCN(c3ncnc4c3oc3ccccc34)CC2)n1,.,7.0%,-5.8%,-5.6%,3.7%,.,.,-0.3%
Cc1ccc(-c2cc(C(=O)Nc3nn[nH]n3)c3ccccc3n2)cc1,17.6%,-7.7%,2.6%,-3.7%,-17.7%,26.5%,12.1%,14.6%
C=CCSc1nc(C)cc(C(=O)OCC)c1C#N,1.1%,-0.7%,.,-41.8%,.,?,-1.1%,7.9%
COc1cc(/C=N/Nc2nc(Nc3ccccc3)nc(N3CCCCC3)n2)ccc1OCC(=O)O,-15.5%,-0.5%,.,.,.,-1.3%[46.1 µM],20.8%,14.0%[46.1 µM]
CC(=O)OCC1OC(COC(C)=O)(c2ccc(C)cc2)C(OC(C)=O)C1OC(C)=O (stereo not drawn),18.2%,.,.,.,.,-6.5%,-22.7%,?
Nc1nc(N)c(S(=O)(=O)c2ccccc2)c(Nc2ccc(Br)cc2)n1,.,.,1.9%,.,-13.2%,-11.7%[46.1 µM],-16.1%,-4.0%[46.1 µM]
CCCOc1ccc(N/C=C/C(=O)c2cc(OC)c(OC)c(OC)c2)cc1,-7.0%,1.2%,.,7.8%,.,.,-20.5%,.
CCNC(=S)NNC(=O)c1ccccc1OC(F)F,1.3%,5.5%,-22.1%,1.1%,4.7%,2.9%,-17.6%,16.3%
Cc1cnc(C(=O)N(CC(C)C)c2c(N)n(CC(C)C)c(=O)[nH]c2=O)cn1,0.0%,-3.0%,.,.,.,5.0%,-20.2%,9.9%
C=CCNc1ncnc2sc(SC)nc12,12.5%,4.7%,.,6.1%,.,.,-18.0%,.
O=C(OCC(=O)N1CCN(c2ccccc2)CC1)c1cccc([N+](=O)[O-])c1,-15.0%,5.1%,.,.,.,-9.4%,4.7%,?
CCN1CCN(C(C(=O)NC2CCCC2)c2cc3c(cc2[N+](=O)[O-])OCO3)CC1 (stereo not drawn),2.6%,0.9%,.,.,.,.,31.4%[activator],-15.3%[46.1 µM]
Cc1ccc2nc(C)cc(C(=O)OCC(=O)Nc3c(C)n(C)n(-c4ccccc4)c3=O)c2c1,0.0%,-5.4%,.,.,.,1.5%,-21.9%,0.2%[46.1 µM]
CSc1nc2ccc3nc(NC(=O)c4ccc(C)cc4)sc3c2s1,7.4%,5.6%,2.0%,-2.6%,-9.4%,.,-1.2%,.
O=C(CN(Cc1ccc(F)cc1)C(=O)CCC(=O)Nc1ccccn1)NCCc1ccccc1,8.3%,2.1%,.,-1.4%,.,-22.6%[46.1 µM],5.0%,-16.8%[46.1 µM]
Cc1cc(C(=O)Cn2nnc3ccccc3c2=O)c(C)n1Cc1cccs1,15.4%,18.0%,?,-0.2%,-1.1%,?,-12.7%,?
CC(=O)c1c(C)[nH]c(C(=O)NCc2ccccc2F)c1C,-2.3%,-1.8%,.,2.1%,.,17.2%,22.9%,-2.0%[46.1 µM]
COc1cc(NC(=O)COC(=O)c2cc(S(=O)(=O)N3CCCCC3)ccc2Cl)c(C)cc1[N+](=O)[O-],10.3%,1.7%,?,14.1µM*,-5.3%,3.2%,-13.0%,0.3%
Cc1cccc(-n2ccnc2SCC(=O)Nc2nccs2)c1C,7.0%,2.2%,3.3%,-7.5%,7.2%,-23.4%,?,?
CN(C)c1ccc(NC(=O)c2ccc3c(c2)nnn3C)cc1,28.2%,0.2%,.,-1.5%,.,.,52.1%[activator],.
CC1=C(C(=O)Nc2ccccc2)C(c2cccnc2)n2ncnc2N1 (stereo not drawn),3.3%,-0.1%,.,6.9%,.,.,-22.1%,.
COc1ccc(OC)c(NC(=O)CCOc2cccc(C)c2)c1,-10.4%,-7.4%,.,-33.6%,.,?,?,?
COc1ccc(N(CC(=O)NC2CCCC2)S(=O)(=O)c2ccc(NC(C)=O)cc2)cc1,19.2%,0.6%,.,-0.9%,.,?,-1.0%,-1.4%[46.1 µM]
